Screens from PubChem BioAssay.
MgrA-DNA mod = modulators of Staphylococcus aureus MgrA DNA binding. fluorescence polarization. inhibition, %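 (about 10 µg/mL by stock and volumes)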. 84,000 compounds, 0.13% hits. AID 602314;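 active = above 50% in either of two replicates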;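 note: 0% = protein plus DNA without compound and 100% = DNA alone without protein; higher means less MgrA bound to DNA so lower polarization; one replicate is shown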
Sa helicase inh = blocks Staphylococcus aureus DNA helicase; purified S. aureus helicase, fluorescence unwinding assay; about half of the hits fall short of the stated cut; inhibition, %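 (tested at about 80 µM)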; 120,000 compounds, 0.05% hits; AID 485395;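 active = both duplicates at 50% or more, or one of them with a favoured structure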;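 note: 0% = mean of negative control wells and 100% = mean of positive control wells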
Starred values were filed as active, the others as inactive; . = not tested or not shown; & = joins results of further samples. Some of the compounds tested; the hit share may differ from the screen's.

SMILES	MgrA-DNA mod	Sa helicase inh
O=C(O)CSc1nnc2sc3ccccc3n12	.	-15
CCOC(=O)C1=C(N)OC2=C(C(=O)CC(C)(C)C2)C1c1ccc(O)cc1 (stereo not drawn)	-1.2	.
O=C(NC1(C(=O)NC2CCCCC2)CCCCC1)c1ccccn1	.	-29
O=C(c1ccc(CS(=O)(=O)c2ccc(Br)cc2)o1)N1CCCCC1	.	-9
Cn1c(CCN(Cc2ccco2)S(=O)(=O)c2ccc(Cl)cc2)n[nH]c1=S	-1.5	.
O=C(Nc1ccc2[nH]ncc2c1)c1ccccc1	.	15
Cc1cc(NC(=O)C2C3C=CC(C3)C2C(=O)O)no1 (stereo not drawn)	-1.0	.
CC12CC3(C)CC(CC(=O)O)(C1)CC(CC(=O)O)(C2)C3	.	-2
CCOC1(OCC)N=C(N)C2(C#N)C3(CCCCC3)C12C#N (stereo not drawn)	.	2
CCc1nn(CC(=O)N2CC(C)CC(C)C2)c(=O)c2cc3occc3n12 (stereo not drawn)	.	-10
CCC(=O)Nc1nn(C)c2cccc(F)c12	0.3	.
CCOC(=O)c1[nH]c(C)c(C)c1C	-0.2	.
CCOc1ccc(CN(C)Cc2nc(N)nc(Nc3ccc(C)cc3)n2)cc1	.	11
O=C(NCCOC12CC3CC(CC(C3)C1)C2)c1cccc(Br)c1	0.0	-8
CC(C)NC(=O)c1scc(S(C)(=O)=O)c1Cl	1.0	.
O=C(/C=C/c1ccc(Br)o1)OCC(=O)N1CCCc2ccccc21	2.3	1
O=S(=O)(Cc1ccc(Cl)cc1)N1C=CC(C(F)(F)F)=NCC1	1.5	.
Brc1cccc(-c2nnc(CN3CCOCC3)o2)c1	1.7	-14
CCn1c(=O)cc(N2CCOCC2)[nH]c1=O	.	5
Cc1c(C(=O)N(C)Cc2ccccc2)sc2nc(-c3ccccc3)cn12	.	14
CC(C)Oc1ccccc1NC(=O)c1cccc(C(=O)Nc2ccccc2OC(C)C)c1	.	4
N#CC(=Nc1cc(Cl)ccc1O)C1=C(O)c2ccccc2C1=O	3.9	.
Cc1cc(Cl)c(S(N)(=O)=O)cc1OCC(N)=O	7.3	-7
Cc1c(C)n(C(=O)CSC(=S)N2CCC(C)CC2)c2ccccc12	2.2	10
O=C(NC1CCCC1)C(NS(=O)(=O)c1cccc2nsnc12)c1ccccc1 (stereo not drawn)	.	5

The results go on.
SMILES	MgrA-DNA mod	Sa helicase inh
O=C(NCc1ccncc1)c1c(O)c2ccccc2[nH]c1=O	-1.1	16
CSc1nc2ccccc2n1CCOc1ccccc1	.	7
COc1ccc(N2Cc3cccc(C(=O)N4CCOCC4)c3C2=O)cc1	0.7	-13
Cc1cc(S(=O)(=O)NC(C)C)ccc1OCC(=O)NCc1ccc2c(c1)OCO2	0.2	22
CC1CC(C)CN(S(=O)(=O)c2ccc(C(=O)NCc3ccccc3)cc2)C1 (stereo not drawn)	.	-7
CCCn1c(C)cc(CNCCSCc2cccs2)c1C	.	-14
Cc1ccc(C(CC(=O)N2CCNCC2)c2ccccc2)c(O)c1C (stereo not drawn)	.	11
O=C(Oc1ccc2oc(=O)sc2c1)c1cccc(Cl)c1	.	-20
Cc1ccc(Sc2ncccc2[N+](=O)[O-])cc1	-0.5	.
CSC1=N/C(=C\c2ccccc2C)C(=O)S1	1.8	5
CCC(C)NC(=O)c1nn(C)c2c1COc1ccccc1-2 (stereo not drawn)	0.4	5
CCOc1ccc(Cl)cc1S(=O)(=O)NC	-0.4	-19
O=C(O)/C=C/c1ccc(/C=N/n2ncc3ccccc32)cc1	.	8
CC(C)(C)NC(=O)NC(=O)Cn1c(NCCO)nc2ccccc21	.	14
CCOC(=O)NN=C(C1CC1)C1CC1	.	-11
COC(=O)COc1cccc2c1ccc1c3c(c(=O)oc12)CCCC3	3.0	-6
CC(C)n1c(=S)[nH]c2c1c(=O)[nH]c(=O)n2C	0.2&-8.7	4&-6
CCn1c(C(=O)NC(C)CCc2ccccc2)cc2sccc21 (stereo not drawn)	-0.7	13
Cc1cccn2c(=O)c3cc(C(=O)NC(C)c4ccccc4)c(=N)n(CCCN4CCOCC4)c3nc12 (stereo not drawn)	.	7
Fc1cccc(Cl)c1C=Nc1cccc(-c2ncon2)c1	-0.4	.
CCCc1nc2c3ccccc3ncn2n1	.	5
CC1Cc2ccccc2N1C(=O)CNc1cc(C(F)(F)F)ccc1N1CCOCC1 (stereo not drawn)	.	-6
O=c1c2ccccc2nc2n1N=C(c1ccc(Br)cc1)CS2	-2.1	10
Fc1ccccc1Nc1n[nH]c(=S)s1	8.9	.
O=C(NCCn1ccc2ccccc21)c1cc(C(F)(F)F)cc(C(F)(F)F)c1	-1.3	15

Next records:
SMILES	MgrA-DNA mod	Sa helicase inh
CS(=O)(=NS(=O)(=O)c1ccccc1Cl)c1ccc(C(F)(F)F)cn1 (stereo not drawn)	0.6	.
CC(=O)c1ccc(-c2ccc(F)c(Cl)c2)o1	2.1	.
Cc1nc2sc3c(c2c2nncn12)CCCC3	.	24
Cc1cccc2nc3c(nc12)C(=O)c1ccccc1C3=O	5.0	24
Cc1cc(C)c(C(=O)COC(=O)CCn2c(C)csc2=O)cc1C	.	11
CCn1cnc2c(=O)oc3ccc(S(=O)(=O)N4CCN(c5cc(Cl)ccc5C)CC4)cc3c21	.	-20
O=S(=O)(Cc1ccc(Cl)cc1)Cc1nc(-c2ccsc2)no1	-1.7	.
S=C(NCc1cccs1)Nc1cc(Cl)cc(Cl)c1	-3.5	.
COC(=O)c1c(C)[nH]c(C)c1-c1ccccc1	-0.1	16
C=CCN1C2=NCCCN2c2ccccc21	0.4	7
O=C1OC(c2ccccc2)=N/C1=C1\OC(=O)c2ccccc21	3.4	5
CC(C)(C)c1ccc(OCCNC(=O)c2cccc(Br)c2)cc1	-2.5	17
O=S(=O)(c1ccc(SCc2ccccc2C(F)(F)F)nc1)N1CCCCC1	.	-10
COc1ccc(NC(=S)N2CCCN(Cc3ccc(F)cc3)C2)cc1	-0.1	12
CCOc1ccc2[nH]c(C)cc(=O)c2c1	.	18
COc1ccc(N=Cc2c(C)c(C#N)c3[nH]c4ccccc4n3c2=O)c(OC)c1	1.1	-233
O=C1CSc2nnc(-c3ccccc3)n21	5.6	.
Cc1[nH]nc2c1C(Cc1ccccc1)C(C#N)=C(N)O2 (stereo not drawn)	.	-7
S=c1nc(-c2cccs2)cn[nH]1	.	-2
Cc1sc2ncnc(SCc3ccccc3)c2c1C	.	12
CCN(CC)c1nc2c(S(=O)(=O)c3ccc(C(C)C)cc3)nnn2c2ccsc12	.	-33
O=C(Nc1ccc(F)cc1F)N1CCC2(CC1)C(=O)NCN2c1ccccc1	.	-7
CCCN(C)S(=O)(=O)c1cccc2c(N)cccc12	-2.9	.
C=CCn1c(SCC(=O)NCCCN2CCOCC2)nnc1-c1sc2ccccc2c1Cl	.	8
CNCC(=O)N1CCN(C)CC1	.	-14

Carrying on:
SMILES	MgrA-DNA mod	Sa helicase inh
Cc1cc(C)n(N)c(=O)c1C(=O)O	.	-15
CCOC(=O)c1cccc(N2Cc3ccncc3C2=O)c1	.	3
O=c1cc(Nc2ccc3c(c2)OCCO3)[nH]c(=O)n1-c1ccc(Cl)cc1	.	4
Nc1sc2c(c1C(=O)NC1CCS(=O)(=O)C1)CCCC2 (stereo not drawn)	.	6
CN1CCc2c(OCC(=O)NC3CCCCC3)cccc2C1=O	.	12
CC(C)NC(=O)CCn1c(=O)c2cccn2c2cccnc21	.	-9
CCN(c1ccc(OC)cc1)S(=O)(=O)c1ccc2c(c1)CC(C)N2C(=O)C1CC1 (stereo not drawn)	2.6	2
O=C(NCCc1ccccc1)Nc1cnc2ccccn2c1=O	.	17
CCN(CC)S(=O)(=O)c1ccc(C(=O)OCCN2C(=O)c3cccc4c(N5CCCCC5)ccc(c34)C2=O)cc1	1.0	.
CN(CC(=O)Nc1ccc(Cl)cc1)S(=O)(=O)CCN1C(=O)NC2(CCCC2)C1=O	.	9
c1ccc(-c2cnsc2-c2ccccc2)cc1	-0.6	.
COc1ccc(-n2nc(C(=O)NCCCN3CCCC3=O)c3c4ccccc4n(C)c3c2=O)cc1Cl	.	-21
COc1ccccc1C1(CC#N)CCOC(C)(C)C1 (stereo not drawn)	-1.4	-3
CCN(CC)c1ccc(C2C3=C(CC(C)(C)CC3=O)OC3=C2C(=O)CC(C)(C)C3)c(O)c1	4.7	.
COc1ccc2nc3sc(C(=O)N4CCCC4)cc3cc2c1	0.3	12
N=C(N)SCc1csc(N)n1	-2.8	9
CC1CC(Nc2ccccc2)c2ccccc2N1C(=O)c1ccco1 (stereo not drawn)	-1.4	-9
O=C(CCC(=O)N1CCc2ccccc21)Nc1ccc(I)cc1	-0.9	.
COc1cc2c(cc1OC)CN(C(=O)c1ccc(Cl)c(S(=O)(=O)NCc3ccco3)c1)CC2	.	-11
NC(=O)CSc1nc(N)cc(=O)[nH]1	.	10
Nc1ccc(CCc2nc3cc(N)ccc3o2)cc1	.	16
COc1ccc(C(=O)COC(=O)c2cccc(-n3cnnn3)c2)c(OC)c1	.	-3
Cc1ccc(C(=O)c2sc3[nH]c(=O)c(C(=O)O)cc3c2N)cc1	.	-3
COC(=O)C(C)SCC(=O)Nc1c(C)cccc1C (stereo not drawn)	1.4	.
CCn1c(SCC(=O)N2CCc3ccccc32)nc2cc(S(=O)(=O)N3CCCCC3)ccc21	.	-11

(further entries)
SMILES	MgrA-DNA mod	Sa helicase inh
O=C(NC1CCCC1)c1cccc(S(=O)(=O)Nc2ccccc2F)c1	-1.3	-8
O=S(=O)(Nn1cnnc1)c1ccccc1	-0.8	9
CCN1C(=O)CS/C1=C(/C#N)C(N)=O	.	-5
COC(=C(C#N)C#N)c1c(-c2ccccc2Cl)noc1C	-2.3	.
O=C(O)Cn1c(SCCOc2ccc(Cl)cc2)nc2ccccc21	-2.2	.
CCS(=O)(=O)N1CCC(C(=O)NCCCN2CCN(c3ccccc3F)CC2)CC1	0.4	8

One compound at a time (already shown). Order of values: MgrA-DNA mod | Sa helicase inh
CC(C)Oc1ccccc1NC(=O)c1cccc(C(=O)Nc2ccccc2OC(C)C)c1 is entered as . | 4
N#CC(=Nc1cc(Cl)ccc1O)C1=C(O)c2ccccc2C1=O is entered as 3.9 | .

Reformatted with values ahead of the structure: 25 of the compounds above
MgrA-DNA mod | Sa helicase inh | Structure
. | 6 | Nc1sc2c(c1C(=O)NC1CCS(=O)(=O)C1)CCCC2 (stereo not drawn)
. | 12 | CN1CCc2c(OCC(=O)NC3CCCCC3)cccc2C1=O
. | -9 | CC(C)NC(=O)CCn1c(=O)c2cccn2c2cccnc21
2.6 | 2 | CCN(c1ccc(OC)cc1)S(=O)(=O)c1ccc2c(c1)CC(C)N2C(=O)C1CC1 (stereo not drawn)
. | 17 | O=C(NCCc1ccccc1)Nc1cnc2ccccn2c1=O
1.0 | . | CCN(CC)S(=O)(=O)c1ccc(C(=O)OCCN2C(=O)c3cccc4c(N5CCCCC5)ccc(c34)C2=O)cc1
. | 9 | CN(CC(=O)Nc1ccc(Cl)cc1)S(=O)(=O)CCN1C(=O)NC2(CCCC2)C1=O
-0.6 | . | c1ccc(-c2cnsc2-c2ccccc2)cc1
. | -21 | COc1ccc(-n2nc(C(=O)NCCCN3CCCC3=O)c3c4ccccc4n(C)c3c2=O)cc1Cl
-1.4 | -3 | COc1ccccc1C1(CC#N)CCOC(C)(C)C1 (stereo not drawn)
4.7 | . | CCN(CC)c1ccc(C2C3=C(CC(C)(C)CC3=O)OC3=C2C(=O)CC(C)(C)C3)c(O)c1
0.3 | 12 | COc1ccc2nc3sc(C(=O)N4CCCC4)cc3cc2c1
-2.8 | 9 | N=C(N)SCc1csc(N)n1
-1.4 | -9 | CC1CC(Nc2ccccc2)c2ccccc2N1C(=O)c1ccco1 (stereo not drawn)
-0.9 | . | O=C(CCC(=O)N1CCc2ccccc21)Nc1ccc(I)cc1
. | -11 | COc1cc2c(cc1OC)CN(C(=O)c1ccc(Cl)c(S(=O)(=O)NCc3ccco3)c1)CC2
. | 10 | NC(=O)CSc1nc(N)cc(=O)[nH]1
. | 16 | Nc1ccc(CCc2nc3cc(N)ccc3o2)cc1
. | -3 | COc1ccc(C(=O)COC(=O)c2cccc(-n3cnnn3)c2)c(OC)c1
. | -3 | Cc1ccc(C(=O)c2sc3[nH]c(=O)c(C(=O)O)cc3c2N)cc1
1.4 | . | COC(=O)C(C)SCC(=O)Nc1c(C)cccc1C (stereo not drawn)
. | -11 | CCn1c(SCC(=O)N2CCc3ccccc32)nc2cc(S(=O)(=O)N3CCCCC3)ccc21
-1.3 | -8 | O=C(NC1CCCC1)c1cccc(S(=O)(=O)Nc2ccccc2F)c1
-0.8 | 9 | O=S(=O)(Nn1cnnc1)c1ccccc1
. | -5 | CCN1C(=O)CS/C1=C(/C#N)C(N)=O
